Compound activity from PubChem BioAssay.
AF4-AF9 inh = MLL-AF4/AF9 protein interaction inhibition; P42568; AlphaScreen, biotin-AF4 peptide binding to FLAG-AF9; inhibition, % at 10 µM; hit rate 0.47% among 350,000; AID 651704;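 active = every replicate reaching a set inhibition limit, whatever the replicate mean, cut at about 25% in these data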;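 also: 0% = plate neutral control median and 100% = total signal loss; the record names both 10 and 1 µM as test concentration; the first replicate is given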
Target sequence (P42568 whole entry, looked up): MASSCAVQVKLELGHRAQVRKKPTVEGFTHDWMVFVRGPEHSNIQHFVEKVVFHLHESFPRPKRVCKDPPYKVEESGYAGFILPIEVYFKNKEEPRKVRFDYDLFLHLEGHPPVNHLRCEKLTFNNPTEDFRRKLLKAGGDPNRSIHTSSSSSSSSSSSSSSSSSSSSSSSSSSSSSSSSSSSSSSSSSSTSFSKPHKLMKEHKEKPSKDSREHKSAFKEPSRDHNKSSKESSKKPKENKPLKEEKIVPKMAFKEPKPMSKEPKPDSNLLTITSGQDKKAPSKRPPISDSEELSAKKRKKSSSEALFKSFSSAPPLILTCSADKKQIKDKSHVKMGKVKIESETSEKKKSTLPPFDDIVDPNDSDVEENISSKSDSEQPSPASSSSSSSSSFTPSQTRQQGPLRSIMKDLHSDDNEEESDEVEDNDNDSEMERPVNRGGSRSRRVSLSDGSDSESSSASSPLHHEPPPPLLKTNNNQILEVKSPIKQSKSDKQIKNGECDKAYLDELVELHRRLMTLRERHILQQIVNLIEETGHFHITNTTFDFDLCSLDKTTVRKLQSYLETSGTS
FGF22 binding = binders of recombinant human FGF22 by thermal shift | SYPRO orange fluorescence; percent of sucrose octasulfate shift, DMSO zero | hit rate 1.5% among 340,000 | AID 651658 | calls only at 9.99 µM;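 active = melting point raised past a set limit in the mean and every replicate; three in four hits are not shown here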
Target sequence (Q9HCT0 whole entry, looked up): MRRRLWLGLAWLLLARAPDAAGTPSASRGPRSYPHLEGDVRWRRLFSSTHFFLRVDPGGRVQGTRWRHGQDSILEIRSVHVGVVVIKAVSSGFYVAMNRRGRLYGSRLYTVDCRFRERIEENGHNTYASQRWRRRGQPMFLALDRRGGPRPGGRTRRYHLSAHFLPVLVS
Ecoli rRNA inh = inhibitors of bacterial rRNA selective over humanized ribosomes; E. coli WT GFP vs humanized-ribosome RFP mutants, fluorescence, 24 h; active compounds read low; DMSO median 0, no signal -100; GFP signal change (wild-type ribosome), % (no concentration beside the values); hit rate 1.6% among 350,000; AID 720706;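 active = significant combined selectivity score with lowered wild-type GFP, culture density cut under 30%, mutant RFP and density less affected; inactive = any of these conditions unmet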; also: one replicate is shown; some compounds called inactive have numbers as strong as hits
Ecoli rRNA inh OD600 = second read-out of Ecoli rRNA inh, no call of its own (marks repeat the call); OD600 change, %; measured here: OD600 growth;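 optical density of the mix in the first replicate; 0 = DMSO median and -100 = no signal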
Ecoli rRNA inh RFP = further read-out of Ecoli rRNA inh, marked with its call; RFP signal change, %; measured here: RFP humanized mutant strains;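 first replicate; 0 = DMSO median and -100 = no signal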
* hit, by the source's call; i = inactive; & = joins results of further samples. Only part of the results is shown; rates above refer to the full screens.

SMILES	AF4-AF9 inh	FGF22 binding	Ecoli rRNA inh	Ecoli rRNA inh OD600	Ecoli rRNA inh RFP
O=C(C[C@@H]1C=C[C@@H](NC(=O)Cc2cccnc2)[C@H](CO)O1)NCc1ccc2c(c1)OCO2	-0.4	i	2	3	0.5
CC(C)NC(=O)Nc1cccc2c1O[C@H](CN(C)S(=O)(=O)c1ccc(Cl)cc1)[C@H](C)CN([C@H](C)CO)C2=O	-1.9	i	-9	-11	-3.0
O=C(C[C@H]1CC[C@@H](NC(=O)Nc2cccc(F)c2)[C@@H](CO)O1)NCC1CC1	-1.7	i	-1	1	-1.8
C[C@@H]1CCCCO[C@@H](CN(C)Cc2ccc(C(=O)O)cc2)[C@H](C)CN([C@H](C)CO)C(=O)c2cc(NC(=O)Nc3ccc4c(c3)OCO4)ccc2O1	4.4	i	-1	7	-3.6
COc1ccc(C2=Cc3ccccc3C(CC(=O)C3CC3)N2c2ccc(C#CCCO)cc2)cc1 (centres undefined)	-0.9	i	9	3	4.9
C[C@H]1CN([C@@H](C)CO)C(=O)c2cccc(NC(=O)Nc3ccc(C(F)(F)F)cc3)c2O[C@@H]1CN(C)Cc1ccc(Oc2ccccc2)cc1	6.0	i	-3	0	2.4
CCC(=O)N(CC1CCC1)C[C@@H]1[C@@H](c2ccccc2)[C@H](CO)N1C(C)=O	-2.3	i	-2	-2	-0.8
COC(=O)C[C@H]1C=C[C@H](NC(=O)Cc2ccccc2)[C@@H](CO)O1	-2.5	i	5	5	3.1
CCCN(C)C[C@H]1Oc2cc(C#CCC(C)C)ccc2S(=O)(=O)N([C@@H](C)CO)C[C@H]1C	5.2	i	-3	-27	41
C[C@@H]1CN([C@@H](C)CO)C(=O)c2cc(NC(=O)CCCN(C)C)ccc2O[C@@H](C)CCCCO[C@H]1CN(C)C(=O)Nc1cccc2ccccc12	7.2	i	-3	-7	4.5
C[C@H]1CN([C@@H](C)CO)C(=O)c2cccc(NC(=O)c3nc4ccccc4s3)c2O[C@@H]1CN(C)S(=O)(=O)c1cccs1	-1.2	i	-14	-4	-1.3
O=C(NCc1nnnn1-c1ccc(Cl)cc1)C(=O)c1c[nH]c2ccccc12	-0.5	i	-5	-12	-0.7
Cc1noc(C)c1NC(=O)N(C)C[C@@H]1Oc2ccc(NC(=O)CCN3CCOCC3)cc2C(=O)N([C@@H](C)CO)C[C@H]1C	-1.4	i	5	1	-0.1
CCCc1cn(CC[C@@H]2CC[C@@H](NC(=O)Nc3ccc4c(c3)OCO4)[C@@H](CO)O2)nn1	-2.3	i	1	-3	-0.9
COc1cccc(CNC(=O)C[C@H]2C=C[C@H](NC(C)=O)[C@@H](CO)O2)c1	-2.1	i	3	11	0.2
COc1cccc(NC(=O)N[C@H]2CC[C@@H](CC(=O)N3CCCCC3)O[C@@H]2CO)c1	-1.0	i	-2	3	0.6
COCc1cn(CC[C@@H]2CC[C@H](NC(=O)c3ccc(F)cc3)[C@H](CO)O2)nn1	-1.3	i	1	3	-0.5
Cc1noc(C)c1NC(=O)Nc1ccc2c(c1)C(=O)N(C)[C@H]1CC[C@H](CC(=O)Nc3ccc4c(c3)CCCC4)O[C@@H]1CO2	4.6	i	-7	-25	-4.1
O=C(NCc1ccccc1CN1CCCC1)C1CCN(C(=O)c2ccc(Cl)cc2)CC1	8.7	i	5	13	3.1
O=C(N[C@@H]1C=C[C@@H](CC(=O)N2CCc3ccccc3C2)O[C@@H]1CO)C1CC1	-3.8	i	-1	0	-2.7
O=C(C[C@@H]1CC[C@H]2[C@@H](COC[C@@H](O)CN2C(=O)c2ccccc2)O1)N1CCOCC1	-4.9	i	7	7	-1.3
COCCCn1cc(CN2CC(N3CCN(C4CCN(C)CC4)CC3)CS2(=O)=O)nn1 (centres undefined)	-2.2	i	21	10	5.5
C[C@@H]1CN([C@@H](C)CO)C(=O)c2cc(NC(=O)Nc3ccc4c(c3)OCO4)ccc2O[C@@H]1CN(C)Cc1ccncc1	4.0	i	1	1	1.8
C[C@H]1CN([C@@H](C)CO)C(=O)c2cc(NC(=O)C3CC3)ccc2O[C@@H]1CN(C)C(=O)NC1CCCCC1	-3.6	i	5	12	-0.5
CC(C)(C)C(=O)Nc1nnc([C@H]2C[C@H](O)[C@@H](CO)O2)s1	-2.3	i	18	28	9.0
C[C@H](CO)N1C[C@H](C)[C@H](CN(C)C)Oc2cc(-c3cccc(C#N)c3)ccc2S1(=O)=O	5.7	i	5	3	-1.1
CC1=C(C(=O)N(C(C)C)C(C)C)CC(CC(=O)NCCN2CCOCC2)C(=O)N1Cc1ccccc1 (centres undefined)	-1.7	i	19	4	1.8
C[C@@H]1CN([C@H](C)CO)C(=O)CCCn2cc(nn2)CO[C@H]1CN(C)Cc1ccccc1C(F)(F)F	-1.3	i	0	-3	-0.5
CCCNC(=O)C[C@H]1CC[C@H]2[C@@H](COC[C@H](O)CN2Cc2ccc(Cl)c(Cl)c2)O1	0.4	i	-4	1	-4.2
CO[C@H]1CN(C)C(=O)c2ccc(NS(=O)(=O)c3ccccc3)cc2OC[C@H](C)N(Cc2ccccn2)C[C@H]1C	-0.9	i	-5	-6	0.1
Cc1ccc(S(=O)(=O)N(C)C[C@@H]2OCCCC[C@@H](C)Oc3ccc(NS(=O)(=O)c4cccs4)cc3C(=O)N([C@@H](C)CO)C[C@@H]2C)cc1	-0.1	i	1	2	-0.4
C[C@H](CO)N1C[C@H](C)[C@@H](CN(C)C(=O)Nc2ccccc2)Oc2ncc(C3=CCCC3)cc2C1=O	-2.0	i	1	1	0.3
C[C@@H]1CN([C@H](C)CO)C(=O)c2cc(NC(=O)c3ccccc3)ccc2O[C@@H](C)CCCCO[C@@H]1CN(C)Cc1ccc(C(=O)O)cc1	-3.6	i	-2	-1	-2.5
C[C@H](CO)N1C[C@H](C)[C@@H](CN(C)C(=O)C2CCCCC2)OCCCC[C@H](C)Oc2ccc(NC(=O)Nc3ccc4c(c3)OCO4)cc2C1=O	6.4	i	1	1	0.3
Cc1nc2ccccc2n1C(C)c1nc2ccccc2n1CC(=O)c1ccsc1 (centres undefined)	0.4	i	11	15	3.2
CC(C)NC(=O)N(C)C[C@H]1Oc2ncc(-c3cncnc3)cc2C(=O)N([C@H](C)CO)C[C@H]1C	-4.8	i	6	14	-2.1
O=C1CSC(=S)N1Cc1ccccc1	0.0	i	-3	6	64
C[C@H](CO)N1C[C@H](C)[C@@H](CN(C)Cc2cccnc2)Oc2ncc(-c3ccc(C#N)cc3)cc2C1=O	-5.6	i	3	14	-0.6
CN(C)c1ccc(NC(=O)Nc2ccc3c(c2)c(=O)n(C)n3Cc2ccc(Cl)cc2)cc1	9.4	i	-5	-2	1.0
COc1ccc(-c2ccc3n(c2=O)C[C@@H]2[C@@H](CO)[C@H](C(=O)N(C)C)N(CC4CCOCC4)[C@H]32)cc1	-3.1	i	-3	-4	-2.0

A different layout for some results above.
Screens in order: AF4-AF9 inh | FGF22 binding | Ecoli rRNA inh | Ecoli rRNA inh OD600 | Ecoli rRNA inh RFP
C[C@H](CO)N1C[C@H](C)[C@@H](CN(C)C(=O)Nc2ccccc2)Oc2ncc(C3=CCCC3)cc2C1=O
→ -2.0 | i | 1 | 1 | 0.3
C[C@@H]1CN([C@H](C)CO)C(=O)c2cc(NC(=O)c3ccccc3)ccc2O[C@@H](C)CCCCO[C@@H]1CN(C)Cc1ccc(C(=O)O)cc1
→ -3.6 | i | -2 | -1 | -2.5
C[C@H](CO)N1C[C@H](C)[C@@H](CN(C)C(=O)C2CCCCC2)OCCCC[C@H](C)Oc2ccc(NC(=O)Nc3ccc4c(c3)OCO4)cc2C1=O
→ 6.4 | i | 1 | 1 | 0.3
Cc1nc2ccccc2n1C(C)c1nc2ccccc2n1CC(=O)c1ccsc1 (centres undefined)
→ 0.4 | i | 11 | 15 | 3.2
CC(C)NC(=O)N(C)C[C@H]1Oc2ncc(-c3cncnc3)cc2C(=O)N([C@H](C)CO)C[C@H]1C
→ -4.8 | i | 6 | 14 | -2.1
O=C1CSC(=S)N1Cc1ccccc1
→ 0.0 | i | -3 | 6 | 64
C[C@H](CO)N1C[C@H](C)[C@@H](CN(C)Cc2cccnc2)Oc2ncc(-c3ccc(C#N)cc3)cc2C1=O
→ -5.6 | i | 3 | 14 | -0.6
CN(C)c1ccc(NC(=O)Nc2ccc3c(c2)c(=O)n(C)n3Cc2ccc(Cl)cc2)cc1
→ 9.4 | i | -5 | -2 | 1.0
COc1ccc(-c2ccc3n(c2=O)C[C@@H]2[C@@H](CO)[C@H](C(=O)N(C)C)N(CC4CCOCC4)[C@H]32)cc1
→ -3.1 | i | -3 | -4 | -2.0

Other records.
SMILES	AF4-AF9 inh	FGF22 binding	Ecoli rRNA inh	Ecoli rRNA inh OD600	Ecoli rRNA inh RFP
C[C@H](CO)N1C[C@H](C)[C@H](CN(C)C(=O)c2cnccn2)Oc2ncc(-c3cccc(F)c3)cc2C1=O	-2.0	i	6	9	-3.9
O=C1NC[C@H](CCCCN2C[C@H](Cc3ccc(O)cc3)N(CCC3CCCCC3)C(=O)C2=O)N(CCc2ccccc2)C1=O	-1.8	i	-53	-81	-15
Cc1ccc(S(=O)(=O)N(C)C[C@H]2Oc3ccc(NC(=O)CCC(F)(F)F)cc3CC(=O)N([C@H](C)CO)C[C@@H]2C)cc1	0.5	i	-6	-2	0.4
O=C(C[C@H]1C=C[C@H](NC(=O)Nc2cc(F)ccc2F)[C@@H](CO)O1)NCCCN1CCOCC1	-2.1	i	4	0	0.2
CNC[C@@H]1Oc2cc(C#Cc3ccccc3F)ccc2S(=O)(=O)N([C@@H](C)CO)C[C@H]1C	7.9	i	-1	-5	7.6
CCCNC(=O)N1C[C@H](O)COC[C@H]2O[C@H](CC(=O)N3CCN(C)CC3)CC[C@@H]21	-5.1	i	17	26	-1.9
Cc1noc(C)c1S(=O)(=O)N(C)C[C@H]1OCCCC[C@H](C)Oc2ccc(NC(=O)NC(C)C)cc2C(=O)N([C@H](C)CO)C[C@H]1C	0.3	i	6	13	0.0
C[C@H](CO)N1C[C@H](C)[C@H](CN(C)S(=O)(=O)c2cccs2)Oc2ccc(NC(=O)C3CC3)cc2C1=O	-0.9	i	0	4	-0.5
C[C@@H](O)C#Cc1cnc2c(c1)C(=O)N([C@@H](C)CO)C[C@H](C)[C@@H](CN(C)C(=O)c1ccccc1)O2	0.4	i	-2	-1	-1.6
OC[C@H]1[C@@H](c2ccc(-c3ccccc3)cc2)[C@@H]2CN(CCC(F)(F)F)CCCCN12	8.5	i	-31	-64	7.2
C[C@H](CO)N1C[C@H](C)[C@@H](CN(C)S(=O)(=O)c2cccc(F)c2)Oc2ncc(Br)cc2C1=O	1.0&-2.6	i	1&-6	15&-9	-1.4&-3.8
CN(C)CCNc1ccc(CO)c2oc3ccc(O)cc3c(=O)c12	9.4	i	-10	-35	5.7
Cc1ccc(NC(=O)COC(=O)CNC(=O)c2cccs2)cc1S(=O)(=O)N1CCOCC1	-0.1	i	-1	1	0.8
CCCNC(=O)N1C[C@H](O)COC[C@@H]2O[C@H](CC(=O)N3CCOCC3)CC[C@H]21	-1.3	i	1	7	-3.0
CNC(=O)C[C@@H]1CC[C@@H]2[C@H](COc3ccc(NC(=O)Nc4ccccc4F)cc3C(=O)N2C)O1	-1.3	i	-3	1	-0.3
CN1CCN(C(=O)C[C@H]2CC[C@@H]3[C@H](COC[C@@H](O)CN3C(=O)C3CC3)O2)CC1	-0.6	i	2	6	-0.8
CC(=O)N(C)C[C@H]1Oc2cc(-c3cccc(F)c3)ccc2S(=O)(=O)N([C@@H](C)CO)C[C@@H]1C	-2.3	i	-9	-9	-1.2
CO[C@@H]1CN(C)C(=O)c2cc(NC(=O)NC(C)C)ccc2OC[C@H](C)N(C(=O)NC(C)C)C[C@H]1C	-1.8	i	0	2	-2.6
C[C@@H]1CN([C@H](C)CO)S(=O)(=O)c2ccc(C#CC3CC3)cc2O[C@@H]1CN(C)Cc1ccccc1	7.9	i	-29	-54	36
CCOC(=O)[C@]12CCCC=C1N(Cc1ccco1)C(=O)[C@H](CC(=O)N1CCCCC1)C2	-2.1	i	13	11	-1.0
OC(c1ccc(F)cc1)c1ncc(-c2ccccc2Cl)[nH]1 (centres undefined)	2.7	i	2	-10	3.9
COc1ccc(NC(=O)N(C)C[C@H]2Oc3ccc(NC(=O)CCC(F)(F)F)cc3C(=O)N([C@@H](C)CO)C[C@@H]2C)cc1	-2.1	i	6	5	1.0
COc1ccccc1N1CCN(C(=O)CCCCCn2c(=S)[nH]c3cc4c(cc3c2=O)OCO4)CC1	-4.8	i	-2	6	0.9
C[C@@H]1CCCCO[C@H](CN(C)S(C)(=O)=O)[C@H](C)CN([C@@H](C)CO)C(=O)c2cc(NS(=O)(=O)c3ccccc3)ccc2O1	3.1	i	0	-3	-3.7
CC(C)c1ccc([C@@H]2O[C@H](C)CC3=C2C(=O)OC(C)(C)O3)cc1	1.1	i	-21	-19	-5.2
